# KCNQ2 block – KCNQ2 channel blockers in CHO-K1 cells – cell-based, FluxOR thallium flux, B-score, primary screen (AID 2156); O88943; 20 min; hits give low values; only compounds with negative scores are shown here; some inactives read as strong as hits; B-score at 10 µM; 1.1% of 310,000 active;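 active means fluorescence ratio B-score at most minus 3 library SDs, with starting brightness B-score within 2 library SDs, cut at about -5.5 in these data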
# Target sequence (O88943 whole entry, looked up): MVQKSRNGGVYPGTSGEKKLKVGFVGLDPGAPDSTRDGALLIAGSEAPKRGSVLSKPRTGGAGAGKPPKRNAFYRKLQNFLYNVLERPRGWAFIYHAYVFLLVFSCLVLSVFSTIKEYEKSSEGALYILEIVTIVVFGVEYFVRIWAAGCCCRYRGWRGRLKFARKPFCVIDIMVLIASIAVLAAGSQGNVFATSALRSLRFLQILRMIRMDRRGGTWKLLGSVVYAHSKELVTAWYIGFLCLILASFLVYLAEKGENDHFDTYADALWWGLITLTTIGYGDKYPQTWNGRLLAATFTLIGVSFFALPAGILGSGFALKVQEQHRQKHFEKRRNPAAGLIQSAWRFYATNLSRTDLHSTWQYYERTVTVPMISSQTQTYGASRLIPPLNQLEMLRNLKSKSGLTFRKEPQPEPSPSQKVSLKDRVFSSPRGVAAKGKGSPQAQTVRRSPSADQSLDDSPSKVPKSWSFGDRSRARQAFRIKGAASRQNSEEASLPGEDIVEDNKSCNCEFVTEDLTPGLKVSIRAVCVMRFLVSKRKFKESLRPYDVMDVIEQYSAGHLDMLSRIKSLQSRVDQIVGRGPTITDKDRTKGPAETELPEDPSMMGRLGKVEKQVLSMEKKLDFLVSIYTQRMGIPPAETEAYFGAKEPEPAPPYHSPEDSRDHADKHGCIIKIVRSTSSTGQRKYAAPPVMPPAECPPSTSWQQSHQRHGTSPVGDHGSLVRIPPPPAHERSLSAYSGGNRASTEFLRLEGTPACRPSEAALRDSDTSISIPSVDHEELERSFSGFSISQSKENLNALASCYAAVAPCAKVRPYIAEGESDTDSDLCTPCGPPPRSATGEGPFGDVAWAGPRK
# KCNQ2 block baseline – second read-out of KCNQ2 block, no call of its own (marks repeat the call); B-score; measured here: initial fluorescence intensity artifact check;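 brightness before thallium and not channel activity; 0 = typical well and far values either way flag optical interference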
# Active calls of the source: *; i = inactive.
SMILES,KCNQ2 block,KCNQ2 block baseline
CP(C)(=O)CCP(=O)(c1ccccc1)c1ccccc1,i,-0.48
O=C(Nc1ccc(Cl)cc1-c1nc2ccccc2s1)c1ccco1,i,0.26
Cc1ccc(S(=O)(=O)N(CC(=O)Nc2ccc(Cl)c([N+](=O)[O-])c2)C2CCCCC2)cc1,i,0.85
Cc1onc(-c2c(Cl)cccc2Cl)c1C(=O)N1CCc2ccccc21,i,-1.03
COc1ccc(-c2oc(/N=C/N3CCCC3)c(C#N)c2-c2ccc(OC)cc2)cc1,i,-0.98
COc1ccc2c(=O)c(-c3ccccc3)coc2c1,i,0.66
CCc1ccc(OCCNC(=O)c2ccco2)cc1,i,1.55
O=C1NC(=Nc2cccc(Cl)c2)SC1Cc1cccc(Cl)c1Cl (configuration not stated),i,0.04
COc1ccc(CN(C)C(=O)CNC(=O)CNC(=O)c2ccc(Cl)cc2Cl)cc1F,i,-0.67
O=C(NCCCN1CCc2ccccc2C1)Nc1ccc(Cl)cc1,i,-1.51
O=C1NCCN(Cc2ccoc2)C1CC(=O)N(CCO)Cc1ccccc1 (configuration not stated),i,-1.36
N#Cc1cc2c(=O)n3ccccc3nc2n(CCCn2ccnc2)c1=N,i,5.91
COCCN(C(=O)CSc1nnc(C)n1Cc1ccccc1)c1c(N)n(CC(C)C)c(=O)[nH]c1=O,i,-1.16
CC(C(=O)N(C1CC1)C1(C(=O)Nc2ccccc2)CCCC1)N1C(=O)c2ccccc2C1=O (configuration not stated),i,0.31
COc1ccc(Nc2oc(COc3cccc(C)c3)nc2C#N)cc1,i,0.53
Cc1ccc(C)c(OCc2nnc(N)s2)c1,i,0.87
CC(C)NC(=O)NC(=O)COc1ccc(Br)cc1Br,i,0.25
O=C(Nc1ccccc1)c1ccc(N2CCN(c3ccccn3)CC2)c(S(=O)(=O)N2CCOCC2)c1,i,0.44
CN1CCN(C(=S)c2cn(CCOc3ccccc3F)c3ccccc23)CC1,i,-0.77
CCOc1ccc(CN2CCN(Cc3cccc4c3OCO4)CC2CCO)cc1 (configuration not stated),i,0.67
COC(=O)c1sccc1NC(=O)Cn1nnc(-c2ccccc2C)n1,i,0.15
CCN(CC)c1ccc(N=Cc2ccc([N+](=O)[O-])o2)cc1,i,1.71
COc1cccc(CN(C)CC(=O)NCc2ccccc2Cl)c1OC,i,-1.22
CCOC(=O)/C=c1\s/c(=C\c2ccc3cc(OC)ccc3c2)c(=O)n1CC(=O)NCc1ccc2c(c1)OCO2,i,4.28
COCc1c(C(=O)OCC(=O)N2c3ccccc3CC2C)oc2ccccc12 (configuration not stated),i,2.08
Cc1cccc(C)c1NS(=O)(=O)c1c(C(=O)N2CCCCC2)c(C)n(C)c1C,i,-0.93
CNc1c(N)c(=O)oc2ccccc12,i,0.92
COc1ccc(C(=O)Nc2ccccc2C(=O)N/N=C/c2ccncc2)cc1OC,i,-1.43
CCc1ccccc1N1CCN(S(=O)(=O)c2ccc(F)c(C)c2)CC1,i,1.68
Cc1ccc(NC(=O)CSc2n[nH]c(N)n2)cc1S(=O)(=O)N1CCOCC1,i,-0.37
O=C(NCCc1ccc(Cl)cc1Cl)c1cc([N+](=O)[O-])c[nH]c1=O,i,-0.04
Cc1cc2nc(-c3ccccn3)c(-c3ccccn3)nc2cc1C,i,-1.26
COc1ccc(-c2oc3c4c(cc(OC)c3c(=O)c2CC=C(C)C)OC(C)(C)C=C4)c(OC)c1,-9.01*,-0.73*
COc1cccc(NC(=O)CN(C)C(=O)c2cc(S(=O)(=O)N3CCCCC3)ccc2Cl)c1,i,1.79
CC1(C)CC(=O)C(C2C3=C(CC(C)(C)CC3=O)Oc3ccccc32)C(=O)C1 (configuration not stated),i,-1.05
O=C(COC(=O)Cc1c[nH]c2ccccc12)Nc1ccccc1,i,-0.09
COc1ccc(NCc2nnc(SCc3ccc(Cl)cc3)n2-c2ccccc2)cc1,i,-0.56
CC12CN3CC(C)(CN(C1)C3c1ccc3c(c1)OCO3)C2 (configuration not stated),i,-0.91
O=c1cc(-c2ccccc2Cl)oc2c(NS(=O)(=O)c3cccs3)ccc(O)c12,i,-0.27
COC(=O)Cn1c(=O)c2c(nc(Br)n2Cc2ccccc2Cl)n(C)c1=O,-5.84*,-1.22*

# Arranged by value in KCNQ2 block baseline (smallest number first): 4 from the list above.
SMILES,KCNQ2 block,KCNQ2 block baseline
Cc1cc2nc(-c3ccccn3)c(-c3ccccn3)nc2cc1C,i,-1.26
COC(=O)Cn1c(=O)c2c(nc(Br)n2Cc2ccccc2Cl)n(C)c1=O,-5.84*,-1.22*
O=C(COC(=O)Cc1c[nH]c2ccccc12)Nc1ccccc1,i,-0.09
O=C(NCCc1ccc(Cl)cc1Cl)c1cc([N+](=O)[O-])c[nH]c1=O,i,-0.04

# Carrying on:
SMILES,KCNQ2 block,KCNQ2 block baseline
CCCOc1ccc(CC(=O)NNC(=S)Nc2ccccc2)cc1Br,i,1.89
CC(C)(C)NC(=O)c1ccccc1-c1nc(-c2ccccc2Cl)no1,i,-0.06
CCOC(=O)c1sc2ncn(CC(=O)N(CC)CC)c(=O)c2c1C,i,4.05
C/C(CCc1oc2c(Br)cc(Br)cc2c1-c1ccc(C)o1)=N\O,i,1.51
O=C(CN(c1ccccc1Cl)S(=O)(=O)c1ccccc1)N/N=C/c1ccccc1C(=O)O,i,0.51
Cc1cc(OCC(=O)Nc2ccccn2)c2c(C)cc(=O)oc2c1,i,-0.23
CC(C)NC(=O)Cn1nnc(-c2cccc(NC(=O)c3ccccc3F)c2)n1,i,1.08
CCOC(=O)C1CCN(c2c(N3CCCCCC3)c(=O)c2=O)CC1,i,1.72
Cc1ccc(OCC(=O)NNC(=O)C2CSC3(C)CCC(=O)N23)cc1 (configuration not stated),i,0.95
Cc1ccc(N2CCN(S(=O)(=O)c3ccc(F)c(C)c3)CC2)c(C)c1,i,2.63
COC(=O)c1ccc(S(=O)(=O)N2CCCN(Cc3ccccc3)CC2)n1C,i,-0.11
CNC(=O)c1sc(N2N=C3/C(=C/c4ccccc4)CCCC3C2c2ccccc2)nc1C (configuration not stated),-6.11*,0.21*
Cc1cc(C=O)c(C)n1-c1sc2c(c1C(=O)O)CCCC2,i,-0.07
COc1ccc(C(=O)Nc2ccc3c(c2)C(=O)N(C)C3=O)cc1OC,i,-0.64
CN(Cc1ccccc1)c1cc(Cl)nc(N)n1,i,-0.1
Cc1ccc(-n2c(C)cc(C(=O)COC(=O)c3c(C)noc3C)c2C)cc1,i,1.38
O=C(Nc1ccncc1)c1cccc2ccccc12,i,-1.13
CC(=O)N1CCc2cc(S(=O)(=O)NC(C(=O)N3CCN(c4ccccc4F)CC3)C(C)C)ccc21 (configuration not stated),i,-1.76
COc1ccc(C(CNC(=O)C(CCSC)NC(=O)c2ccccc2OC)N2CCCCC2)cc1 (configuration not stated),i,0.37
O=C(Nc1cnc2ccccn2c1=O)c1ccc(Cl)cc1Cl,i,1.27
CSc1c[n+]2c(n1C)CCC2,i,0.91
CCCCOc1ccc(C(=O)OC2CC(C)N(C)CC2C)cc1 (configuration not stated),i,-0.04
O=C(O)CCc1ccc(-c2cccs2)n1CC1CCCO1 (configuration not stated),i,3.16
COc1ccc(C(=O)Nc2ccc(N3CCCC3)cc2)cc1Br,i,-0.13
O=C(CSc1ccccc1)N1CCN(c2ccccn2)CC1,i,0.66
O=C(CNC(=S)N(Cc1ccc(F)cc1)C1CCCCC1)NCC1CCCO1 (configuration not stated),i,0.67
Cc1nc2ccc(NC(=S)NC3CC3)cc2nc1C,i,0.72
O=C(Nc1nnc(SCc2ccc(F)cc2)s1)c1cccnc1Cl,i,-1.83
Cc1cc(C)n2cc(CSc3nnnn3-c3ccccc3)nc2n1,i,0.01
CCOc1ccccc1N1CCN(CC(=O)Nc2nc(C)c(C(=O)N(C)C)s2)CC1,i,-0.16
COc1ccc2c(c1)CC(C(=O)Nc1ccc(Cl)cc1)/C(=N/O)O2 (configuration not stated),i,-0.68
N#CCC1c2ccccc2CCN1C(=O)Nc1ccc(Cl)cc1 (configuration not stated),i,0.79
COc1ccc(C(=O)c2c(C)c(CCC#N)n3ccccc23)c(OC)c1,i,2.42
COc1ccc(CN(C)CC(=O)Nc2ccccc2-c2ccccc2)c(OC)c1,i,0.35
Clc1ccc(/C=N/N2CCN(Cc3ccccc3)CC2)cc1,i,0.48
COc1cccc(NC(=S)NC(C)c2ccc(OC)c(OC)c2)c1 (configuration not stated),i,0.61
CSCC[C@H](NC(=O)C1CCN(S(=O)(=O)c2ccc(C)cc2)CC1)C(=O)NC1CCS(=O)(=O)C1 (some centres not stated),i,-0.16
COc1ccccc1C1C(C(=O)c2cc3ccccc3o2)=C(O)C(=O)N1CCN1CCOCC1 (configuration not stated),i,0.09
O=C1c2ccccc2NC(c2ccc(-c3cccc([N+](=O)[O-])c3)o2)N1O (configuration not stated),i,7.88
O=C(Nc1ccc(F)cc1F)c1cccn1-c1ncc(C(F)(F)F)cc1Cl,i,-0.38
O=C(CN1C(=O)C2C3C=CC(C3)C2C1=O)NCc1ccco1 (configuration not stated),i,0.3
COC(=O)c1cc(-c2cccc([N+](=O)[O-])c2)c2c(=O)[nH]c(=O)n(C)c2n1,i,0.2
COc1ccccc1OCCC(=O)OCC(=O)Nc1cc(S(=O)(=O)N2CCOCC2)ccc1Cl,i,-0.17
Cc1ccc(S(=O)(=O)N(Cc2n[nH]c(=S)n2-c2ccccc2)c2ccccc2)cc1,i,2.04
CC1CCc2nn(CC(=O)NCCCN3CCCC3=O)cc2C1 (configuration not stated),i,0.96
Cc1c(Br)cc(C(=O)O)c(C)c1C,i,2.34
CCn1c(SCC(=O)c2cccs2)nnc1-c1cccs1,i,0.18
Cc1cc(N/N=C\c2ccc(Br)cc2)nc(-n2nc(C)cc2C)n1,i,1.51
COc1cc(/C=C2\C(=N)N3N=C(N4CCOCC4)SC3=NC2=O)ccc1OC(=O)c1ccccc1,i,-1.81
CC(=O)c1ccc(S(=O)(=O)N2CCC3(CC2)CC(=O)c2ccccc2O3)cc1,i,0.03

# (next part)
SMILES,KCNQ2 block,KCNQ2 block baseline
CC(C)(C)NC(=O)COC(=O)c1ccccc1OCC(=O)Nc1ccc(Br)cc1,i,-0.61
CCOC(=O)/C(C#N)=C/c1c(Oc2cccc(C)c2)nc2ccccn2c1=O,i,-0.71
CC1Cc2c([nH]c3ccccc23)C2c3ccccc3CN12 (configuration not stated),i,-0.64
CCOC(=O)/C(C#N)=C/c1cc2ccccc2nc1N1CCCCC1,-6.46*,1.01*
Cn1c(CCNC(=O)c2ccco2)nc2cc(NC(=O)NC3CCCCC3)ccc21,i,0.74
Cc1cc(C)cc(OCC(=O)N/N=C/c2ccc([N+](=O)[O-])o2)c1,i,0.09
COc1ccc(CCN(CC(=O)NC2CCCC2)C(=O)Cn2nnc(-c3ccc(C)o3)n2)cc1OC,i,0.05
N#CCCn1c(=S)[nH]c2ccccc21,i,-0.74
COCCNc1cc(C)c(C#N)c2nc3ccccc3n12,i,0.82
CCN(CC)CCNCC(O)(c1ccc(Cl)cc1)c1ccc(Cl)cc1,i,0.4

# Whole records as entered above. Order of screens: KCNQ2 block	KCNQ2 block baseline
# COc1ccc(Nc2oc(COc3cccc(C)c3)nc2C#N)cc1 is listed with i	0.53
# COCCN(C(=O)CSc1nnc(C)n1Cc1ccccc1)c1c(N)n(CC(C)C)c(=O)[nH]c1=O is listed with i	-1.16
# COCCNc1cc(C)c(C#N)c2nc3ccccc3n12 is listed with i	0.82
# O=C(CSc1ccccc1)N1CCN(c2ccccn2)CC1 is listed with i	0.66
# CCN(CC)CCNCC(O)(c1ccc(Cl)cc1)c1ccc(Cl)cc1 is listed with i	0.4

# Next entries.
SMILES,KCNQ2 block,KCNQ2 block baseline
CCN1C(=O)C(CC(=O)Nc2ccc(OC)cc2)N(Cc2ccc3c(c2)OCO3)C1=S (configuration not stated),i,1.8
COc1ccc(S(=O)(=O)Nc2cc3c4c(c2)CCC(=O)N4CCC3)cc1,i,1.46
CC1(C)Cc2ccccc2-c2nc3n(c(=O)c21)CCCS3,i,-0.02
Cc1nn(Cc2ccc(F)cc2)c(C)c1NC(=O)c1cnn2c1NC(c1cccs1)CC2C(F)(F)F (configuration not stated),i,-0.78
CCOc1ccc(NC(=O)CC2C(=O)N(c3ccccc3)C(=O)N2CCOC)cc1 (configuration not stated),i,-0.06
CCOC(=O)c1nc(C)n(-c2ccc(Cl)cc2)n1,i,-0.99
CCOc1ccc(N(CC(=O)Nc2cccc(Cl)c2)S(=O)(=O)c2c(C)noc2C)cc1,i,-0.49
CCc1nc(-c2ccccc2O)n(-c2ccccc2)n1,i,0.61
Cc1cc(OCCCC(=O)NCCc2ccccn2)ccc1Cl,i,-1.43
Cc1ccccc1NS(=O)(=O)c1ccc2c(c1)NC(=O)CCS2,i,1.28
O=C(CS(=O)(=O)c1cn(Cc2ccc(Cl)cc2)c2ccccc12)N1CCCC1,i,0.16
CCOc1cc(CNc2cccc3ccccc23)cc(Br)c1OCC(=O)NC(C)(C)C,-6.85*,1.57*
CCOC(=O)CNS(=O)(=O)c1ccc(S(=O)(=O)N2CCCC2)cc1,i,-1.18
COc1ccc(-c2csc(=Nc3ccccc3)n2CCO)cc1,i,-0.04
Cc1ccc(C)c(C(=O)COC(=O)C(C)N2C(=O)C3C4CCC(C4)C3C2=O)c1 (configuration not stated),i,-0.75
O=C1CSc2ccc(S(=O)(=O)NCc3ccccc3Cl)cc2N1,i,1.6
CN(c1cccc(NC(=O)Nc2ccc(Cl)cc2)c1)S(C)(=O)=O,i,-0.96
CCCc1cc(-c2nc(N)ncc2-c2csc(C)n2)c(O)cc1OC,i,-0.47
COc1cc(/C=N/N=C(/C(=O)c2ccccc2)c2ccccc2)cc(OC)c1O,i,-0.38
O=C(NCC1CCCO1)c1ccc2c(c1)C(=O)N(c1cccc([N+](=O)[O-])c1)C2=O (configuration not stated),i,-0.57

# Assay outcomes (PubChem BioAssay)

# These rows are one share of the data; the hit share may differ from the screen's.
